TR SRC2 fluor cs: alters Texas Red total fluorescence, flagging assay interference. actives 0.29% (n = 280,000). Potency, µM (top dose mostly 106 µM), for the others: at the top dose fluorescence change, negative = quenching. AID 1479. TRb/SRC2 Texas Red total fluorescence interference; active = well fitted curve in either direction with a large enough effect; inconclusive = small, poorly fitted or top-dose-only effect; also: % is scaled to controls: 0 for no effect and ±100 for the full control effect
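Human TRβ ligand-binding domain (0.6 uM) and Texas Red SRC2 peptide (20 nM) in Tris buffer with 1 uM T3 and 5% DMSO were incubated with pinned compound for 5 hr at ambient temperature. Total fluorescence was computed as S + 2P (555/632 nm).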
RECQ1 helicase: RECQ1 (human) helicase inhibition; P46063; RECQ1 DNA unwinding, red fluorescence kinetic read; Potency, µM (series often up to 57.3 µM), without a hit: top-dose activity, negative = inhibition, most hits filed as inhibitors; actives 0.54% (n = 240,000);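 also: plate controls were vehicle for no effect and no enzyme for full effect; nearly all actives have a fitted effect of over 30% in size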
Target sequence (P46063 whole entry, looked up): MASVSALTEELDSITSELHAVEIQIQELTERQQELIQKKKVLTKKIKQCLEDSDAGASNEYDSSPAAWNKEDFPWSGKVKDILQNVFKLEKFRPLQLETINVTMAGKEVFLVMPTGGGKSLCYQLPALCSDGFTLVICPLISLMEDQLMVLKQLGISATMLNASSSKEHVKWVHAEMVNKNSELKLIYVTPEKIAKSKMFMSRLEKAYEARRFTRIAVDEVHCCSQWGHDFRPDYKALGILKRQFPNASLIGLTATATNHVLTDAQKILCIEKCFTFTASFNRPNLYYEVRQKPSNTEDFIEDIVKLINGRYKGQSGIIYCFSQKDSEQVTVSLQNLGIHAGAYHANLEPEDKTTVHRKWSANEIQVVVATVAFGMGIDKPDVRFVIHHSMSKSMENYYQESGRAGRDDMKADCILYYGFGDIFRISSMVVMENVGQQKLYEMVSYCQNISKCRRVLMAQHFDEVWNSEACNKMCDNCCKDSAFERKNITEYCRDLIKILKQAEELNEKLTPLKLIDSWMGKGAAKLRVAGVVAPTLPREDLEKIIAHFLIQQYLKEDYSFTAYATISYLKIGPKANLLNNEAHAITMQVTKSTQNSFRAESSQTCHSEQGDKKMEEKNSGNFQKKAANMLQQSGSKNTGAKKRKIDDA
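50 nM RECQ1T1 preincubated 15 min with compound in Tris pH 8.0 buffer with MgCl2, DTT, Tween-20 and 2.5 ug/ml poly(dI-dC); started with 200 nM TAMRA/BHQ-2 forked duplex and 2 mM ATP. Unwinding read as fluorescence (525/598 nm), two reads 2 h apart.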
HTT ATP protect: Huntington cell model cytoprotection by ATP luminescence; Potency, µM (titrated, usually from 56.4 µM), for inactives: cytoprotection (ATP increase), usual class: activators; PC12 HTT-Q103 induced, cytoprotection, ATP luminescence, 40 h; actives 0.14% (n = 230,000); AID 1471;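 also: % of control where 0% means no effect; nearly all actives have a fitted effect of over 45% in size; toxic huntingtin expression switched on by the ecdysone agonist tebufenozide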
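ATP quantification (ATPlite) reports survival of PC12 cells in which tebufenozide, 100 nM final, switches on Htt exon 1 with 103 glutamines linked to GFP; compounds are titrated.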
TRb-SRC2 inh: TRbeta-SRC2 interaction inhibition | P10828 | TRbeta-SRC2 peptide binding, fluorescence polarization; receptor liganded with 1 µM T3 | Potency, µM (highest dose often 106 µM), for inactives: top-dose activity change, negative = inhibition, actives largely listed as inhibitors | actives 0.065% (n = 280,000);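 also: plate controls were bound peptide for no effect and peptide without receptor for full effect; nearly all actives have a fitted effect of over 50% in size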
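Decrease in fluorescence polarization of 20 nM Texas Red SRC2 coactivator peptide flagged inhibition of its binding to 0.6 uM TRb LBD; 1 uM T3 included, incubation 5 hr, ex 555/em 632 nm.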
* hit, by the source's call; i = inactive; ? = inconclusive; · = not tested or not shown; & = joins results of further samples; [ ] = dose if it differs, or a comment. Unless noted, calls follow the shape of the dose curve; as a rule, active = well fitted curve in the direction sought with a large enough effect; inconclusive = small, poorly fitted or top-dose-only effect, or another doubt; inactive = no such curve, though single readings can be large; an effect the other way counts as inactive or inconclusive. Potency is read from the fitted curve at half-maximal effect.

Values in the order: TR SRC2 fluor cs, RECQ1 helicase, HTT ATP protect, TRb-SRC2 inh
NC(=O)c1ncn([C@@H]2O[C@H](CO)[C@@H](O)[C@H]2O)n1
 : 1.6%&-4.7%&-4.1%, -6.0%&18.6%&-15.5%, -64.6%[inhibitor], 0.7%&-4.7%&-0.4%
O[C@@](CCN1CCCC1)(c1ccccc1)C1CCCCC1
 : 0.0%[53 µM], i, 4.9%[40.3 µM], -5.9%[53 µM]
Cc1ccc(/C(=C\CN2CCCC2)c2ccccn2)cc1
 : -4.3%&0.6%&-1.6%&-6.1%, -19.2%&-5.8%&1.0%, 10.1%, -3.4%&-2.9%&-4.1%&-1.3%
CC(=O)OCC(=O)[C@@]1(O)[C@H](C)C[C@@H]2[C@H]3CCC4=CC(=O)C=C[C@]4(C)[C@]3(F)[C@@H](O)C[C@@]21C
 : 0.3%[53 µM], i, -79.8%[inhibitor][17.1 µM], 3.3%[53 µM]
Cc1c(C)c2c(c(C)c1O)CC[C@@](C)(CCC[C@H](C)CCC[C@H](C)CCCC(C)C)O2
 : 3.0%&-0.7%&0.1%, -17.2%&-4.6%&3.5%, ?, 0.2%&-2.1%&-2.9%
CC(C)NCC(O)c1ccc(O)c(O)c1 (stereo not drawn)
 : 0.3%, -2.1%&7.9%&2.5%, -29.7%&-40.6%&-45.5%, -3.3%
CC(C(=O)O)c1ccc(-c2ccccc2)c(F)c1 (stereo not drawn)
 : -3.4%&-2.3%&-0.1%, 4.2%&-7.5%&-6.5%, -16.0%[0.074 µM], 6.8%&5.9%&-0.7%
CC(C)c1nc(CN(C)C(=O)N[C@H](C(=O)N[C@@H](Cc2ccccc2)C[C@H](O)[C@H](Cc2ccccc2)NC(=O)OCc2cncs2)C(C)C)cs1
 : -0.2%&-7.0%, -4.0%&-3.2%, -0.4%, 2.5%&2.5%
NC(=O)c1ncn([C@H]2O[C@@H](CO)[C@@H](O)[C@@H]2O)n1
 : -4.9%[53 µM], -9.8%[25.9 µM], ?, -5.1%[53 µM]
CN(Cc1cnc2nc(N)nc(N)c2n1)c1ccc(C(=O)N[C@H](CCC(=O)O)C(=O)O)cc1
 : 13.4%[53 µM], -17.2%[25.9 µM], -77.3%[inhibitor][17.1 µM], -4.1%[53 µM]
CC(=O)O[C@@]1(C(C)=O)CCC2C3C=C(C)C4=CC(=O)CCC4(C)C3CCC21C (stereo partly drawn)
 : -1.4%, i, -33.4%[inhibitor], 6.8%
Nc1nnc(-c2cccc(Cl)c2Cl)c(N)n1
 : -1.7%&0.5%&-2.9%&-2.4%, -10.7%&-3.7%&-1.9%, 20.3%, -4.5%&2.9%&1.9%&2.1%
COc1ccc2c3c1O[C@H]1C[C@H](O)C=C[C@@]31CCN(C)C2
 : -1.6%, -6.3%, ?, 0.0%
CN(C)c1ccc(/C=C2\C(=O)Nc3ccccc32)cc1
 : -9.6%&-10.5%&-4.6%&-5.4%, 16.1%&-5.8%, -143.0%&-72.2%&-71.4%[inhibitor], 3.5%&16.6%&1.7%&2.1%
NC(=O)C1CCN(C(=O)Nc2ccccc2)CC1
 : -6.3%, -4.2%, 8.3%, -3.6%

Continued:
Values in the order: TR SRC2 fluor cs, RECQ1 helicase, HTT ATP protect, TRb-SRC2 inh
Oc1cccc(O)c1
 : -0.7%&-2.3%, -5.3%&6.6%, -16.6%&-36.1%, 3.8%&7.8%
CN(Cc1cnc2nc(N)nc(N)c2n1)c1ccc(C(=O)N[C@@H](CCC(=O)O)C(=O)O)cc1
 : -8.7%, -8.4%&-19.8%, -15.5%&-53.9%&-45.5%, 3.2%
CCC1(O)CC2CN(CCc3c([nH]c4ccccc34)[C@@](C(=O)OC)(c3cc4c(cc3OC)N(C=O)C3[C@]45CCN4CC=C[C@@](CC)([C@@H](OC(C)=O)[C@]3(O)C(=O)OC)[C@H]45)C2)C1 (stereo partly drawn)
 : -15.5%, -19.1%, ·, 8.1%
CN(C)CCc1c[nH]c2ccc(CC3COC(=O)N3)cc12 (stereo not drawn)
 : -2.9%, i, -9.4%, 2.2%
C[C@@H](C(=O)O)c1ccc(-c2ccccc2)c(F)c1
 : 0.3%, -5.2%, -8.0%, 2.8%
Nc1ccn([C@@H]2O[C@H](CO)[C@@H](O)[C@H]2O)c(=O)n1
 : -1.2%, i, ?, 0.3%
COC(=O)C1=C(C)NC(C)=C(C(=O)OCCN(C)Cc2ccccc2)[C@H]1c1cccc([N+](=O)[O-])c1
 : -2.1%[53 µM], -2.2%[25.9 µM], -51.0%[inhibitor][17.1 µM], 0.2%[53 µM]
CN(C)CC/C=C1\c2ccccc2Sc2ccc(Cl)cc21
 : -0.8%, 10.3%, -88.9%[inhibitor], 2.4%
O=C(NC[C@@H]1CCCCN1)c1cc(OCC(F)(F)F)ccc1OCC(F)(F)F
 : -4.1%[53 µM], -5.2%[25.9 µM], ?, 8.1%[53 µM]
CCOc1nc2cccc(C(=O)OC(C)OC(=O)OC3CCCCC3)c2n1Cc1ccc(-c2ccccc2-c2nn[nH]n2)cc1 (stereo not drawn)
 : -2.1%, ?, -109.8%[inhibitor], 5.2%
COCCOC(=O)C1=C(C)NC(C)=C(C(=O)OC(C)C)[C@H]1c1cccc([N+](=O)[O-])c1
 : -3.5%[53 µM], -11.7%[25.9 µM], 0.8%[40.3 µM], 11.2%[53 µM]
CCN(CC)CCC[C@H](C)Nc1ccnc2cc(Cl)ccc12
 : -9.1%[53 µM], 3.2%[25.9 µM], 7.7%[40.3 µM], -4.9%[53 µM]
C[C@]12CCC(=O)C=C1CC[C@@H]1[C@@H]2[C@@H](O)C[C@@]2(C)[C@H]1CC[C@]2(O)C(=O)CO
 : -2.7%, -10.6%, 42.3%, 2.7%
C[C@@]12CCC(=O)C=C1CC[C@@H]1[C@@H]2[C@H](O)C[C@]2(C)[C@@H]1CC[C@]2(O)C(=O)CO
 : -3.6%[53 µM], i, -44.9%[inhibitor][17.1 µM], -4.0%[53 µM]

Exported with tabs: part of the list above.
Structure	TR SRC2 fluor cs	RECQ1 helicase	HTT ATP protect	TRb-SRC2 inh
C[C@]12CCC(=O)C=C1CC[C@@H]1[C@@H]2[C@@H](O)C[C@@]2(C)[C@H]1CC[C@]2(O)C(=O)CO	-2.7%	-10.6%	42.3%	2.7%
CN(C)CCc1c[nH]c2ccc(CC3COC(=O)N3)cc12 (stereo not drawn)	-2.9%	i	-9.4%	2.2%

Grouped by structure, the entries above containing a halogen (7)
Values in the order: TR SRC2 fluor cs, RECQ1 helicase, HTT ATP protect, TRb-SRC2 inh
CC(=O)OCC(=O)[C@@]1(O)[C@H](C)C[C@@H]2[C@H]3CCC4=CC(=O)C=C[C@]4(C)[C@]3(F)[C@@H](O)C[C@@]21C
 : 0.3%[53 µM], i, -79.8%[inhibitor][17.1 µM], 3.3%[53 µM]
CC(C(=O)O)c1ccc(-c2ccccc2)c(F)c1 (stereo not drawn)
 : -3.4%&-2.3%&-0.1%, 4.2%&-7.5%&-6.5%, -16.0%[0.074 µM], 6.8%&5.9%&-0.7%
Nc1nnc(-c2cccc(Cl)c2Cl)c(N)n1
 : -1.7%&0.5%&-2.9%&-2.4%, -10.7%&-3.7%&-1.9%, 20.3%, -4.5%&2.9%&1.9%&2.1%
C[C@@H](C(=O)O)c1ccc(-c2ccccc2)c(F)c1
 : 0.3%, -5.2%, -8.0%, 2.8%
CN(C)CC/C=C1\c2ccccc2Sc2ccc(Cl)cc21
 : -0.8%, 10.3%, -88.9%[inhibitor], 2.4%
O=C(NC[C@@H]1CCCCN1)c1cc(OCC(F)(F)F)ccc1OCC(F)(F)F
 : -4.1%[53 µM], -5.2%[25.9 µM], ?, 8.1%[53 µM]
CCN(CC)CCC[C@H](C)Nc1ccnc2cc(Cl)ccc12
 : -9.1%[53 µM], 3.2%[25.9 µM], 7.7%[40.3 µM], -4.9%[53 µM]

Bioassay records (PubChem)

An excerpt; rates above refer to the full screens.
